High-throughput results from PubChem.
Rango release inh – prevents RanGTP from dissociating the Rango-importin beta complex | actives 0.071% (n = 340,000) | Potency, µM (titrated, usually from 46.1 µM), inactives show at the highest dose activity change, negative = inhibition | O95149+P62826 | AID 540253 | Biochemical FRET Rango-importin beta, RanGTP-induced dissociation; active means falling FRET ratio curve, often poorly fitted, with flat reads before Ran was added; inconclusive means other falling curves, or compound fluorescence or quenching; inactive means flat or rising ratio curve;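 also: potency is read from the fitted curve at half-maximal effect; % of control where 0% means no effect; nearly all actives have a fitted effect of over 45% in size; -100% = wells without RanGTP and RCC1; the record marks most hits as doubtful in a second field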
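FRET read at 45 min, room temperature: inhibitors block the CFP/YFP signal rise when RanGTP (0.6 uM Ran, 2 mM GTP, 0.2 uM RCC1) frees Rango (0.1 uM) from importin beta (0.25 uM). Pre-read after 5 min compound exposure flags interference.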
miR-21 reporter – miR-21 reporter, rising signal. Potency, µM (top dose mostly 38.3 µM), inactives show at the top dose reporter change, positive = more light. HeLa miR-21 FLuc reporter, luciferase, 48 h. 340,000 tested, under 10 active; active = well fitted rising curve with a large enough effect; inconclusive = small, poorly fitted or top-dose-only effect; inactive = no such curve, though single readings can be large or run the other way;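 also: % of control where 0% means no effect; miR-21 action dims this reporter so a rising signal means less miR-21 action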
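HeLa cells endogenously expressing miR-21, stably carrying CMV-driven firefly luciferase with a downstream miR-21 binding site, 2000 cells/well. Titrations up to approximately 40 uM, 48 hours; luciferase luminescence read.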
Rango-impB inh – prevents formation of the Rango-importin beta complex; Q14974; Rango CFP/YFP FRET sensor + importin beta, 45 min; Potency, µM (series often up to 92.2 µM), inactives show at the highest dose inhibition of complex formation; actives 0.031% (n = 340,000); AID 540263; active = rising FRET ratio curve, often small or poorly fitted; inconclusive = mostly compound fluorescence or quenching in the first reads; inactive = flat curves in all reads;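 also: potency is read from the fitted curve at half-maximal effect; 0% = DMSO wells and 100% = buffer wells lacking importin beta; nearly all actives have a fitted effect of over 15% in size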
Target sequence (Q14974 whole entry, looked up): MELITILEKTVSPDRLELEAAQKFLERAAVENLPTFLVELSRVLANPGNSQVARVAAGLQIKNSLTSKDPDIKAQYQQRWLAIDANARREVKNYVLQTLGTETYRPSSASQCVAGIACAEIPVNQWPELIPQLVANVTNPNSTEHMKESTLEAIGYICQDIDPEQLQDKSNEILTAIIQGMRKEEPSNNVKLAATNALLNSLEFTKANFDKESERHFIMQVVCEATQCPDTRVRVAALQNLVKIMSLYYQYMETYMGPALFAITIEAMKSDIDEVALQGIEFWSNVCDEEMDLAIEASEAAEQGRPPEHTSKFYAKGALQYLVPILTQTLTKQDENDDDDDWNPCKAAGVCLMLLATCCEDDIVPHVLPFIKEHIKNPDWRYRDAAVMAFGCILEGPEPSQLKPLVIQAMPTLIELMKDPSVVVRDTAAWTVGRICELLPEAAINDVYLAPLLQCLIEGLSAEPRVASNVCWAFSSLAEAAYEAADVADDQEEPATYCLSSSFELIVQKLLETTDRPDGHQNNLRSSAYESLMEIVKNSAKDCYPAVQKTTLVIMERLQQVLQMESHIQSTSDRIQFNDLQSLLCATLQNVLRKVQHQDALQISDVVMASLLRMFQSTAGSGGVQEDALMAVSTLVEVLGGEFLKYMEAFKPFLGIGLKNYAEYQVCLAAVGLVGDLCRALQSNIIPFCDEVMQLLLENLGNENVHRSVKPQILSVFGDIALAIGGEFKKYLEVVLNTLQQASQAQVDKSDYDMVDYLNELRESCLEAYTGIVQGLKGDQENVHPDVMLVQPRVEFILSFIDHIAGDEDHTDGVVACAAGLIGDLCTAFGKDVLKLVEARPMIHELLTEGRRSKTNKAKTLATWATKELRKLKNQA
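FRET biosensor (snurportin 1 IBB flanked by EYFP and cerulean), 50 nM, with compound 5 min, then 0.125 microM importin beta in PBS, 1 mM DTT, 0.02% Tween-20, 0.1% BSA. CFP/YFP ratio read after 45 min at room temperature; pre-read flags interference.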
GLA inh pH 4.5 – alpha-galactosidase A (human) inhibition, pH 4.5; P06280; purified enzyme, 4-MU-alpha-Gal fluorescence, pH 4.5; activity change, negative = inhibition, % at 105 µM; 230,000 tested, under 10 active; inconclusive = small, poorly fitted or top-dose-only inhibition, or a rising curve; inactive = flat fitted curve, though single readings scatter; no compound was filed as active;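 also: 0% = full activity with enzyme and -100% = basal without enzyme; dose as in the result columns while the protocol names 77 µM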
Numbers without * were called inactive; ? = inconclusive; nt = not tested or not shown; & = joins results of further samples. An excerpt; count on the stated rates, not on these rows.

nr | smiles | Rango release inh | miR-21 reporter
1 | CCc1nccn1S(=O)(=O)c1ccccc1[N+](=O)[O-] | 23.2% | 4.6%
2 | COc1cc(C)c(C)cc1S(=O)(=O)n1c(C)nc2ccccc21 | 8.8% | -13.4%
3 | Cc1ccsc1C(=O)N/N=C/c1ccc2c(c1)OCO2 | 2.6% | -42.3%
4 | O=C(NC1CCCCC1)C(c1ccc2ncccc2c1)N(Cc1ccccc1)C(=O)c1cccs1 (centres undefined) | -16.4% | -1.5%
5 | O=C(NNC1=NCCCCC1)Nc1ccc(Cl)cc1 | -5.1% | -24.4%
6 | c1ccc(CCc2nc(-c3ccc(-n4cccc4)cc3)no2)cc1 | 12.8% | -7.7%
7 | CC1CCc2sc3nc(N4CCN(CCO)CC4)n4ncnc4c3c2C1 (centres undefined) | 6.9% | -81.0%
8 | CC(C)(C)c1ccc(/C=C/C(=O)Nc2ncccn2)cc1 | -2.1% | -59.4%
9 | O=C(CSc1nnc(-c2ccccc2)n1-c1ccccc1)c1cccs1 | -8.9% | 0.1%
10 | CCOC(=O)Nc1ccc(OC(=O)Oc2ccc(NC(=O)OCC)cc2)cc1 | 26.4% | nt

nr | Rango-impB inh | GLA inh pH 4.5
1 | -0.2% | nt
2 | -2.0% | nt
3 | 3.3% | -6.9
4 | -0.3% | -4.8
5 | -0.5% | -3.6
6 | -0.6% | 0.2
7 | -3.0% | 0.4
8 | -1.4% | -1.0
9 | 1.9% | 2.2
10 | 6.4% | nt

Next compounds follow.
nr | smiles | Rango release inh | miR-21 reporter
11 | Cc1cc(C)nc(NS(=O)(=O)c2ccc(NC(=O)COc3ccccc3F)cc2)n1 | -5.0% | nt
12 | C=CCNC(=S)/N=c1/ccccn1CCC | 6.7% | 0.5%
13 | O=C(CN(C(=O)c1csnn1)c1ccccc1Cl)NC1CCCCC1 | 0.3% | -4.1%
14 | COC(=O)[C@]1(C)N[C@H](CN(C)C(=O)c2ccccc2)[C@@H]2C(=O)N(C)C(=O)[C@@H]21 | 12.4% | nt
15 | CCNc1nc(NC(C)C)nc(NS(=O)(=O)c2ccc(C)cc2)n1 | -1.2% | -4.8%
16 | O=C1C=C(N(CCO)CCO)C2(CCCCC2)O1 | 16.1% | 1.9%
17 | COc1cccc(NC(=O)CN(C)C(=O)CCC(=O)c2cc(C)sc2C)c1 | -0.3% | nt
18 | O=C(NC1CCOC1=O)c1ccccc1 (centres undefined) | 0.2% | nt
19 | Cc1cc(C)c(S(C)(=O)=O)c(S(=O)(=O)c2ccc(Cl)cc2)n1 | 2.6% | -3.5%
20 | COc1cc(C2C3=C(CCCC3=O)Nc3[nH]n(-c4ccccc4)c(=O)c32)ccc1O (centres undefined) | 2.2% | -5.8%

nr | Rango-impB inh | GLA inh pH 4.5
11 | -4.9% | nt
12 | 0.2% | 1.7
13 | -0.9% | nt
14 | -1.3% | nt
15 | 1.4% | nt
16 | 4.7% | 2.7
17 | -0.4% | nt
18 | -0.5% | nt
19 | -1.3% | 6.3
20 | 0.6% | -19.9

(cont.)
nr | smiles | Rango release inh | miR-21 reporter
21 | CN=C1N(C)C[C@@H]2[C@@H]3C(=O)N(Cc4ccccc4)C(=O)[C@@H]3[C@](Cc3ccccc3)(C(=O)OC)N12 | 13.1% | nt
22 | Cc1ccc(S(=O)(=O)n2nc(-c3ccc(Cl)cc3)nc2NCc2ccco2)cc1 | 2.5% | -19.6%
23 | Cc1cc(C(=O)Nc2nc3ccc(S(C)(=O)=O)cc3s2)c(C)o1 | -24.4% | -15.2%
24 | CC/C=C/C(=O)N1CC2(CC(c3cccc(NC(=O)CCCCC)c3)=NO2)C[C@H]1C(N)=O (some centres undefined) | 6.5% | 0.5%
25 | CCCn1cnc2c(N)c(C)c(C)cc21 | -4.8% | -7.7%
26 | Cc1nc(C(=O)NC(C)C)nn1-c1cc(Cl)cc(Cl)c1 | -6.2% | -2.2%
27 | O=C1CC(c2ccc(S(=O)(=O)N3CCN(c4ccccc4)CC3)cc2)CN1 (centres undefined) | 11.8% | 0.3%
28 | Cc1ccc(C(=O)NCCNC(=O)c2ccc(C)o2)o1 | 14.2% | 1.5%
29 | Cc1ccc(NC(=O)Cn2nc(-c3ccco3)ccc2=O)cc1Cl | 1.0% | 2.2%
30 | Cc1ccc(N2CC(C(=O)NCc3nnnn3-c3ccc(C)c(C)c3)CC2=O)cc1 (centres undefined) | 10.5% | -0.3%&1.4%

nr | Rango-impB inh | GLA inh pH 4.5
21 | 9.1% | nt
22 | ? | 0.9
23 | ? | -2.2
24 | -0.7% | 1.0
25 | 4.3% | 2.3
26 | 0.4% | -0.9
27 | 3.7% | 2.8
28 | 0.0% | nt
29 | -2.3% | nt
30 | 2.7% | nt

Other records
nr | smiles | Rango release inh | miR-21 reporter
31 | CC(C)COn1c(=S)[nH]c2ccccc2c1=O | -8.5% | -13.9%
32 | COC(=O)C(NS(=O)(=O)c1ccc(N2CCCC2=O)cc1)c1ccccc1 (centres undefined) | -12.4% | 1.0%
33 | CC(=O)Nc1cccc(Oc2nc(C(F)(F)F)nc3ccccc23)c1 | 9.8% | -3.6%
34 | COc1ccc(CCN(C)CCN2C(=O)c3ccccc3C2=O)cc1OC | 23.1% | -7.1%
35 | O=C(COC(=O)COc1ccccc1F)NC1CC1 | -2.8% | nt
36 | COc1ccc(NC(=O)C(c2ccc(C)cc2)N(C)C(=O)CNC(C)=O)cc1 (centres undefined) | 0.7% | -6.4%
37 | Cc1cc(NC(=O)CSCC(=O)NCc2cccc(C(F)(F)F)c2)no1 | 4.6% | nt
38 | COc1ccc(-n2c(C)nn(CCOc3ccccc3)c2=O)cc1 | -6.7% | -41.0%
39 | Cn1c(N)c(C(=O)COC(=O)CC(NC(N)=O)c2ccc(Cl)cc2)c(=O)n(C)c1=O (centres undefined) | -3.9% | nt
40 | COc1ccc(-c2csc(N(CCCN(C)C)C(=O)c3ccc(Br)cc3)n2)cc1 | -0.9% | 4.9%

nr | Rango-impB inh | GLA inh pH 4.5
31 | -0.6% | -1.2
32 | 1.6% | nt
33 | 1.3% | nt
34 | 4.5% | 1.0
35 | 1.7% | nt
36 | -0.1% | 10.1
37 | 1.7% | nt
38 | -0.7% | -4.4
39 | 4.7% | nt
40 | -0.1% | nt

(further entries)
nr | smiles | Rango release inh | miR-21 reporter
41 | Nc1nc2n[nH]nc2c(=O)[nH]1 | -0.1% | nt
42 | COCCNc1oc(-c2cccs2)nc1S(=O)(=O)c1ccc(C)cc1 | 1.0% | -4.2%
43 | O=C(COC(=O)CSCC(=O)N1CCCCC1)Nc1ccc(Cl)cc1 | 11.1% | -0.5%
44 | CCCCC(=O)Nc1ccc(C(=O)NNC(=S)NC(=O)c2ccccc2[N+](=O)[O-])cc1 | 0.5% | -7.9%
45 | NC(=Nc1nc(-c2ccccn2)cc2ccccc12)c1ccccn1 | -14.8% | nt
46 | CC(=O)Nc1cccc(C(=O)OCC(=O)NC(=O)c2ccccc2)c1 | 4.7% | nt
47 | Cc1ccc(C(=O)NCC(=O)Nc2ccc3c(c2)CCC3)cc1C | -14.1% | nt
48 | CCC(=O)N1CCc2cc(Br)cc(S(=O)(=O)NC3CCN(Cc4ccccc4)CC3)c21 | -6.6% | -0.7%
49 | O=C(NNc1cc(Cl)ccc1Cl)C1CCC1 | -7.3% | -8.3%
50 | CNC[C@H]1Oc2c(NS(=O)(=O)c3cccs3)cccc2C(=O)N([C@H](C)CO)C[C@@H]1C | -10.7% | nt

nr | Rango-impB inh | GLA inh pH 4.5
41 | 0.9% | -2.0
42 | -0.9% | -1.4
43 | 3.7% | -11.3
44 | -1.7% | -1.8
45 | -3.5% | nt
46 | 0.0% | nt
47 | 2.0% | nt
48 | -1.4% | nt
49 | -1.3% | 3.7
50 | 1.8% | nt

Of the compounds above, these have two or more sulfur atoms.
nr | smiles | Rango release inh | miR-21 reporter
9 | O=C(CSc1nnc(-c2ccccc2)n1-c1ccccc1)c1cccs1 | -8.9% | 0.1%
19 | Cc1cc(C)c(S(C)(=O)=O)c(S(=O)(=O)c2ccc(Cl)cc2)n1 | 2.6% | -3.5%
23 | Cc1cc(C(=O)Nc2nc3ccc(S(C)(=O)=O)cc3s2)c(C)o1 | -24.4% | -15.2%
42 | COCCNc1oc(-c2cccs2)nc1S(=O)(=O)c1ccc(C)cc1 | 1.0% | -4.2%
50 | CNC[C@H]1Oc2c(NS(=O)(=O)c3cccs3)cccc2C(=O)N([C@H](C)CO)C[C@@H]1C | -10.7% | nt

nr | Rango-impB inh | GLA inh pH 4.5
9 | 1.9% | 2.2
19 | -1.3% | 6.3
23 | ? | -2.2
42 | -0.9% | -1.4
50 | 1.8% | nt

(list continues)
nr | smiles | Rango release inh | miR-21 reporter
51 | Cc1ccc(C(=O)NCCc2csc(C)n2)cc1 | 7.5% | -40.9%
52 | CC(c1ccccc1)C1CC(=O)N(CC(=O)O)C1=O (centres undefined) | 0.0% | -1.5%
53 | COc1cccc(NC(=O)CN(C)C(=O)CNC(=O)c2ccc(Oc3ccccc3)cc2)c1 | -1.4% | nt
54 | CSc1ncc(CN2CCN(CCC(C)C)C(CCO)C2)cn1 (centres undefined) | -3.6% | 0.0%
55 | CC(C)[C@H]1COCCS(=O)(=O)N1Cc1ccccc1F | -3.2% | nt
56 | CCOc1ccc(N(CC(=O)Nc2cc(OC)cc(OC)c2)S(=O)(=O)c2c(C)[nH]c(=O)[nH]c2=O)cc1 | -14.0% | -0.6%&-2.0%
57 | COC(=O)C1=C(O)/C(=C\c2ccc(CNS(=O)(=O)c3ccc(Cl)cc3)o2)N=C1C | ? | -2.9%
58 | COC(=O)c1ccc(OCc2nn[nH]n2)cc1 | 3.6% | -2.3%
59 | FC(F)Oc1ccc(C2N=C(c3ccccc3)NO2)cc1 (centres undefined) | -17.5% | -57.2%
60 | COC(=O)c1ccc(NS(=O)(=O)c2cc3c4c(c2)CCC(=O)N4CCC3)cc1 | 17.6% | nt

nr | Rango-impB inh | GLA inh pH 4.5
51 | -2.9% | 5.3
52 | 3.1% | 5.5
53 | 0.5% | nt
54 | -0.6% | 2.4
55 | 0.3% | nt
56 | ? | nt
57 | ? | 1.1
58 | 1.8% | nt
59 | 0.2% | nt
60 | 3.0% | nt

More records follow.
nr | smiles | Rango release inh | miR-21 reporter
61 | O=C(NCCCn1ccnc1)c1cc(S(=O)(=O)N2CCOCC2)ccc1F | 13.7% | -0.5%
62 | CCOc1cc(C(=O)N2CCC(CC3CC(c4cccc(Br)c4)=NO3)(C(=O)NCC3CCCCC3)CC2)cc(OCC)c1OCC (centres undefined) | -21.1% | 0.1%
63 | COc1cccc(N2CCN(Cc3ccco3)CC2)c1 | -6.6% | -15.3%
64 | COc1ccc(-n2ncc3c(=O)n(CC(C)=O)cnc32)cc1 | -2.0% | -29.9%
65 | CCOC(=O)c1cc(-c2ccc(OC)cc2)n[nH]1 | 0.1% | -47.5%
66 | CC(=O)c1cccc(CN2CCN(C3CCCC3)C(CCO)C2)c1 (centres undefined) | -1.2% | 0.4%
67 | CCC(C)NC(=O)C1CCC(CNS(=O)(=O)c2ccc3c(c2)N(C(C)=O)CCO3)CC1 (centres undefined) | 0.8% | -0.1%
68 | O=C(NCCC(=O)N(Cc1ccco1)Cc1cccs1)c1ccc([N+](=O)[O-])cc1 | -1.1% | nt
69 | CC(C)(C)c1cc(=O)[nH]c(SCc2ccccc2)n1 | 4.3% | -1.5%
70 | COc1cc(-c2ncc3ccccn23)cc(OC)c1OC | -5.0% | -2.3%
71 | CC12CN(C(=O)c3ccccc3Br)CC(C)(CN(C(=O)c3ccccc3Br)C1)C2=O | -14.2% | -2.1%
72 | COc1ccc(CC2(CO)CCN(C(=O)NCc3ccccc3)CC2)cc1 | 15.6% | -1.3%

nr | Rango-impB inh | GLA inh pH 4.5
61 | 0.2% | 2.6
62 | 2.2% | nt
63 | -1.8% | nt
64 | -0.9% | nt
65 | 2.0% | -10.8
66 | -1.2% | -6.2
67 | -4.8% | nt
68 | -3.2% | nt
69 | -2.4% | 3.8
70 | 0.4% | 4.1
71 | 0.1% | -9.2
72 | 1.3% | -5.5
